Bfl-1 A1 inh = inhibitors of the anti-apoptotic protein A1, read as caspase activation | MEF A1-2A-BIM cells, Caspase-Glo 3/7 luminescence, 3 h; percent of clofoctol response, vehicle zero | caspase activation, % (no concentration beside the values) | actives 0.066% (n = 330,000) | AID 2462;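 active = over half of replicate activation scores above 10%, or exactly half above 10 with the replicate mean above 10; inconclusive = replicate mean below 10 yet half the replicates above 10; inactive = over half of replicates below 10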;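 also: wells of about 30 µL received 50 nL stock; many hits fall short of the cut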
AF4-AF9 inh = inhibitors of human MLL-AF4/AF9 interaction. AlphaScreen, biotin-AF4 peptide binding to FLAG-AF9. AID 651704. actives 0.47% (n = 350,000). inhibition, % at 10 µM. P42568;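 active = every replicate reaching a set inhibition limit, whatever the replicate mean, cut at about 25% in these data; inconclusive = mean inhibition reaches that limit but some replicates miss it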;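 also: 0% = plate neutral control median and 100% = total signal loss; the record names both 10 and 1 µM as test concentration; the first replicate is given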
Target sequence (P42568 whole entry, looked up): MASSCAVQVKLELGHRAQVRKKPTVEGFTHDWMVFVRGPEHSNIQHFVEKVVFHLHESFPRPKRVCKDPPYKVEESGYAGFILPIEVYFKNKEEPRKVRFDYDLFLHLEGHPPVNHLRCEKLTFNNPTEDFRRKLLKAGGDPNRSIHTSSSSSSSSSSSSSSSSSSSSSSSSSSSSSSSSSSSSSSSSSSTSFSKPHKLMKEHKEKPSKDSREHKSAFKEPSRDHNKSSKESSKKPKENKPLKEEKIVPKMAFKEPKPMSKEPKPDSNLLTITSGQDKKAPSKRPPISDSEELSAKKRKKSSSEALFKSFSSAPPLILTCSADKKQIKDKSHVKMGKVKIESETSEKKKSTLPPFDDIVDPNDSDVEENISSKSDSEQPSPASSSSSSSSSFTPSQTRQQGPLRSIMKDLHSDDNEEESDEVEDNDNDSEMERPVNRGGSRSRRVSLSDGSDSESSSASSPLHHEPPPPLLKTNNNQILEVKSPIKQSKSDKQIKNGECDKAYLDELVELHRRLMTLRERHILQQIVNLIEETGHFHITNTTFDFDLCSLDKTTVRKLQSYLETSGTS
Vif A3G = HIV-1 Vif–A3G interaction blockers – biochemical, TR-FRET, GST-Vif 1-94, biotin-A3G peptide, dose response retest, primary screen (AID 1117319). TR-FRET GST-Vif / biotin-A3G peptide binding; higher % means a stronger effect; test concentration not given here; strong numbers were not always called active. inhibition, %, or IC50 in µM where a hit was titrated. actives 0.57% (n = 260,000);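 active = above the screen mean plus three standard deviations and confirmed in dose response; inconclusive = results disagree or hit not tested in dose response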;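 also: Vif residues 1-94 fused to GST binding biotinylated APOBEC3G peptide 110-148; 0% = full assay without inhibitor and 100% = GST in place of GST-Vif; retest series ran down from 100 µM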
T cruzi repl = T. cruzi replication inhibition; actives 1.4% (n = 300,000); inhibition, % (no concentration beside the values); T. cruzi beta-gal in NIH3T3, luminescence, 90 h;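 active = mean inhibition across valid replicates above about 55%, limit read from the data; inconclusive = mean below that limit but half or more replicates reach it; inactive = mean below it, under half of replicates reach it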;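 also: signal also drops with host cell toxicity which is not excluded here; 0% = plate median of DMSO wells and 100% = zero luminescence signal; higher percent means less beta-gal luminescence so fewer parasites; stock transfer was 50 nL into about 50 µL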
Calb FLC = affects C. albicans growth with fluconazole. actives 0.57% (n = 300,000). C. albicans CaCi-2 (fluconazole-resistant clinical isolate) + fluconazole, Alamar Blue growth, 48 h. growth inhibition, % (test concentration not listed). AID 1979;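 active = most replicates above 75%; inconclusive = exactly half above 75%; inactive = most below 75%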;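 also: all wells also contain fluconazole at 8 µg/ml as a sub-toxic cotreatment; 0% = median of DMSO wells and 100% = median of geldanamycin control wells; wells of about 8 µL received 7.5 nL stock; the first replicate is given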
RanGTP-Impb inh = inhibitors of RanGTP-importin-beta interaction, primary screen, biochemical, FRET, CFP-Ran, YFP-importin-beta, homogeneous | cell-free CFP-Ran/YFP-importin-beta FRET ratio | inhibition, % (test concentration not listed) | actives 1.1% (n = 300,000) | AID 2216;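 active = most replicates above 15%; inconclusive = exactly half above 15%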;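 also: 0% = DMSO wells and 100% = Ran loaded with GDP instead of GTP; wells of about 40 µL received 100 nL stock; the first replicate is given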
rRNA inh HTS = selective bacterial rRNA inhibition in E. coli; E. coli WT GFP vs humanized-ribosome RFP mutants, fluorescence, 24 h; hits give low values; DMSO median 0, no signal -100; AID 720706; actives 1.6% (n = 350,000); GFP signal change (wild-type ribosome), % (test concentration not listed);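 active = significant combined selectivity score with lowered wild-type GFP, culture density cut under 30%, mutant RFP and density less affected; inactive = any of these conditions unmet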; also: one replicate is shown; some compounds called inactive have numbers as strong as hits
Beta apoptosis = beta cell apoptosis inhibition; AID 435005; actives 0.8% (n = 300,000); protection from apoptosis, % (concentration not given with the values); INS-1E cytokine-induced death, ATP luminescence, 48 h; percent of positive-control rescue, neutral wells zero;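 active = all replicates at 75% or more, or half of them and the mean; inconclusive = half reach 75% but not the mean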;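 also: 0% = cytokine-treated negative control wells and 100% = positive control rescue; higher means more ATP so stronger rescue from cytokine killing; wells of about 40 µL received 100 nL stock; the first replicate is given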
rRNA inh HTS OD600 = recorded beside rRNA inh HTS, whose call it bears; OD600 change, %; measured here: OD600 growth;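 optical density of the mix in the first replicate; 0 = DMSO median and -100 = no signal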
rRNA inh HTS RFP = recorded beside rRNA inh HTS, whose call it bears; RFP signal change, %; measured here: RFP humanized mutant strains;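 first replicate; 0 = DMSO median and -100 = no signal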
* = called active by the depositor.

How did O=C(N/N=C/c1ccccc1F)c1ccc(COc2ccccc2Cl)o1 do in these assays?
Bfl-1 A1 inh: 2.6; Vif A3G: 2%; T cruzi repl: -6; Calb FLC: -11; RanGTP-Impb inh: -1.8; Beta apoptosis: -1

What do the screens show for `O=C(Nc1ccc(Cl)cc1Cl)c1ccc(Br)o1`?
Bfl-1 A1 inh: -3.6; AF4-AF9 inh: 3.2; T cruzi repl: -6; Calb FLC: 2; RanGTP-Impb inh: 3.6; rRNA inh HTS: 9; Beta apoptosis: -2; rRNA inh HTS OD600: 5; rRNA inh HTS RFP: 0.0

What do the screens show for `CCn1nc(C)c(CN2CCc3c([nH]c4ccccc34)C2C(C)(C)C)c1C` (stereo not given)?
Bfl-1 A1 inh: 1.8; AF4-AF9 inh: 11; Vif A3G: inconclusive; T cruzi repl: 12; Calb FLC: 11; RanGTP-Impb inh: 0.6; rRNA inh HTS: -13; Beta apoptosis: 1; rRNA inh HTS OD600: -11; rRNA inh HTS RFP: 2.7

How did CCc1nc(SCC(=O)N2CCCc3ccccc32)c2oc3ccccc3c2n1 do in these assays?
Bfl-1 A1 inh: 0.7; Vif A3G: 11%; T cruzi repl: 29; Calb FLC: -1; RanGTP-Impb inh: -2.8; Beta apoptosis: 10

Results for O=C(N/N=C/c1cccc2ccccc12)c1ccncc1 ?
Bfl-1 A1 inh: 0.8; AF4-AF9 inh: 4.8; Vif A3G: -22%; T cruzi repl: -3; Calb FLC: -14; RanGTP-Impb inh: 1.9; rRNA inh HTS: 0; rRNA inh HTS OD600: 4; rRNA inh HTS RFP: 0.5

What do the screens show for `Cc1cc([N+](=O)[O-])cnc1Sc1nccn1C`?
Bfl-1 A1 inh: 0.3; AF4-AF9 inh: -1.8; Vif A3G: 32%; T cruzi repl: 4; Calb FLC: -10; RanGTP-Impb inh: 1.3; rRNA inh HTS: 15; Beta apoptosis: -6; rRNA inh HTS OD600: 7; rRNA inh HTS RFP: 0.4

How did CCN1C(=O)[C@H]2[C@@H](c3ccc(C)cc3)N3C(=O)N(c4cccc(C)c4)C(=O)[C@@]3(Cc3ccccc3)[C@H]2C1=O do in these assays?
Bfl-1 A1 inh: -0.1; AF4-AF9 inh: -7.8; T cruzi repl: -26; Calb FLC: 5; RanGTP-Impb inh: -4.1; rRNA inh HTS: 5; Beta apoptosis: 1; rRNA inh HTS OD600: -2; rRNA inh HTS RFP: -12

What do the screens show for `COCCNC(=O)CSc1nc2cc3c(cc2c(=O)n1Cc1ccco1)OCO3`?
Bfl-1 A1 inh: 2.0; Vif A3G: 2%; T cruzi repl: -14; Calb FLC: inconclusive; RanGTP-Impb inh: 2.6; Beta apoptosis: 7

Results for O=C(Nc1ccc(Cl)cc1)Nc1nc(-c2sccc2Br)cs1 ?
Bfl-1 A1 inh: -1.3; Vif A3G: 12%; T cruzi repl: 2; Calb FLC: 26; RanGTP-Impb inh: -0.8; Beta apoptosis: 52

How did O=C(COc1ccc(F)cc1)NN1C(=O)CSC1=S do in these assays?
Bfl-1 A1 inh: 0.6; AF4-AF9 inh: -3.1; Vif A3G: 14%; T cruzi repl: -9; Calb FLC: -5; RanGTP-Impb inh: -1.9; rRNA inh HTS: 15; Beta apoptosis: 3; rRNA inh HTS OD600: 12; rRNA inh HTS RFP: 18

What do the screens show for `CC1=C(C(=O)OCCOC(C)C)C(c2cccnc2)C2=C(CCCC2=O)N1` (stereo not given)?
Bfl-1 A1 inh: -0.4; Vif A3G: 4%; T cruzi repl: 8; Calb FLC: -18; RanGTP-Impb inh: 1.8; Beta apoptosis: -4

What do the screens show for `COc1ccc(C(=O)NCc2ncccc2C)cc1OC1CCN(C(C)=O)CC1`?
Bfl-1 A1 inh: 2.3; AF4-AF9 inh: -1.7; Vif A3G: -4%; T cruzi repl: 0; Calb FLC: -5; RanGTP-Impb inh: -7.9; rRNA inh HTS: 4; Beta apoptosis: 0; rRNA inh HTS OD600: 8; rRNA inh HTS RFP: 2.2

How did CC(NC(=O)Cc1ccc(NS(=O)(=O)c2cccc(C(F)(F)F)c2)cc1)c1ccccn1 (stereo not given) do in these assays?
Bfl-1 A1 inh: -0.2; AF4-AF9 inh: -10.0; Vif A3G: 1%; T cruzi repl: 8; Calb FLC: -5; RanGTP-Impb inh: inconclusive; rRNA inh HTS: 0; Beta apoptosis: -3; rRNA inh HTS OD600: 1; rRNA inh HTS RFP: 3.3

What do the screens show for `Cc1ccc(C(=O)n2cnnc2N)cc1C`?
Bfl-1 A1 inh: inconclusive; Vif A3G: -3%; T cruzi repl: -9; Calb FLC: -1; RanGTP-Impb inh: 2.0; Beta apoptosis: -1

How did Cc1cc(=O)oc(C)c1C(=O)NCC1COc2ccccc2O1 (stereo not given) do in these assays?
Bfl-1 A1 inh: 0.0; AF4-AF9 inh: 8.2; Vif A3G: 3%; T cruzi repl: 2; Calb FLC: 5; RanGTP-Impb inh: 4.7; rRNA inh HTS: -4; Beta apoptosis: 2; rRNA inh HTS OD600: -2; rRNA inh HTS RFP: -9.3

What do the screens show for `COc1ccc(CN2C(=O)CCCc3ccccc32)cc1`?
Bfl-1 A1 inh: -0.9; AF4-AF9 inh: 0.8; Vif A3G: -9%; T cruzi repl: -4; Calb FLC: 8; RanGTP-Impb inh: -4.3; rRNA inh HTS: -14; Beta apoptosis: 1; rRNA inh HTS OD600: -13; rRNA inh HTS RFP: 0.4

What do the screens show for `CCC1(CC)NC(=O)N(CC(=O)OCC(=O)Nc2ccccc2[N+](=O)[O-])C1=O`?
Bfl-1 A1 inh: -0.1; AF4-AF9 inh: -2.1; Vif A3G: 11%; T cruzi repl: -10; Calb FLC: -21; RanGTP-Impb inh: 3.0; rRNA inh HTS: 20; Beta apoptosis: -1; rRNA inh HTS OD600: 8; rRNA inh HTS RFP: 1.1

What do the screens show for `Nc1nc(-c2ccco2)nn1S(=O)(=O)c1ccc(Cl)cc1`?
Bfl-1 A1 inh: -0.4; AF4-AF9 inh: 2.0; Vif A3G: 2%; T cruzi repl: -6; Calb FLC: -8; RanGTP-Impb inh: 4.9; rRNA inh HTS: 12; Beta apoptosis: 1; rRNA inh HTS OD600: 4; rRNA inh HTS RFP: 6.1

Results for Cc1cccc(C)c1NC(=O)CNC(=O)Cc1ccc(Br)cc1 ?
Bfl-1 A1 inh: 0.4; AF4-AF9 inh: -2.9; Vif A3G: 3%; T cruzi repl: -5; Calb FLC: -15; RanGTP-Impb inh: 4.4; rRNA inh HTS: 9; Beta apoptosis: -1; rRNA inh HTS OD600: 16; rRNA inh HTS RFP: -1.4

Results for CCOC(=O)c1cnc(SCC(=O)Nc2ccc(N3CCOCC3)cc2)nc1N ?
Bfl-1 A1 inh: 0.5; Vif A3G: 9%; T cruzi repl: -8; Calb FLC: -12; RanGTP-Impb inh: -2.2; Beta apoptosis: -2

Results for COc1cccc(Cn2nnc(C(=O)Nc3cc(Cl)ccc3OC)c2N)c1 ?
Bfl-1 A1 inh: 1.0; AF4-AF9 inh: -18; Vif A3G: -2%; T cruzi repl: -6; Calb FLC: -7; RanGTP-Impb inh: -1.3; rRNA inh HTS: -3; Beta apoptosis: -5; rRNA inh HTS OD600: -10; rRNA inh HTS RFP: -2.0

Results for O=C(CNC(=O)c1ccccc1)OCC(=O)N1N=C(c2ccc(Cl)cc2)CC1c1ccco1 (stereo not given) ?
Bfl-1 A1 inh: -0.4; AF4-AF9 inh: -1.4; T cruzi repl: -13; Calb FLC: 2; RanGTP-Impb inh: 6.5; rRNA inh HTS: 1; Beta apoptosis: -5; rRNA inh HTS OD600: 0; rRNA inh HTS RFP: -1.4

How did CCOC(=O)c1[nH]c(C)c(C(=O)NCCN2CCOCC2)c1C do in these assays?
Bfl-1 A1 inh: -1.0; AF4-AF9 inh: 0.1; Vif A3G: 12%; T cruzi repl: 0; Calb FLC: 2; RanGTP-Impb inh: -2.3; rRNA inh HTS: 8; Beta apoptosis: -5; rRNA inh HTS OD600: 6; rRNA inh HTS RFP: 1.4

How did CC(OC(=O)c1cc(-c2cccnc2)nc2ccccc12)C(=O)Nc1ccc2ccccc2c1 (stereo not given) do in these assays?
Bfl-1 A1 inh: 1.0; AF4-AF9 inh: 17; Vif A3G: -22%; T cruzi repl: 3; Calb FLC: 0; RanGTP-Impb inh: -2.3; rRNA inh HTS: 7; Beta apoptosis: 2; rRNA inh HTS OD600: 4; rRNA inh HTS RFP: 16

How did Cc1sc2nc(C)n(/N=C/c3ccccc3)c(=O)c2c1C do in these assays?
Bfl-1 A1 inh: 0.2; Vif A3G: 2%; T cruzi repl: -2; Calb FLC: -29; RanGTP-Impb inh: -0.5; rRNA inh HTS: 6; Beta apoptosis: -2; rRNA inh HTS OD600: 0; rRNA inh HTS RFP: -1.4

What do the screens show for `CC(=O)c1cccc(NC(=O)C(C)OC(=O)CCC2CCCCC2)c1` (stereo not given)?
Bfl-1 A1 inh: -0.1; AF4-AF9 inh: -2.6; Vif A3G: 0%; T cruzi repl: 3; Calb FLC: 0; RanGTP-Impb inh: 2.4; rRNA inh HTS: -11; Beta apoptosis: -1; rRNA inh HTS OD600: -20; rRNA inh HTS RFP: 3.8

Results for COc1c(/C=N/NC(=O)c2ccccc2O)c(CCN(C)C(C)=O)cc2c1OCO2 ?
Bfl-1 A1 inh: -1.1; T cruzi repl: -13; Calb FLC: -4; RanGTP-Impb inh: inconclusive

How did CN(C)CCNC(=O)c1c(CSc2ccccc2)noc1C(=O)NCc1ccccc1 do in these assays?
Bfl-1 A1 inh: 0.0; AF4-AF9 inh: 3.1; Vif A3G: -5%; T cruzi repl: 19; Calb FLC: -27; RanGTP-Impb inh: 2.3; rRNA inh HTS: 3; Beta apoptosis: 2; rRNA inh HTS OD600: -6; rRNA inh HTS RFP: 9.6

How did Cc1ccc(-c2nnc(SCc3ccc(C#N)cc3)n2Cc2ccco2)cc1 do in these assays?
Bfl-1 A1 inh: 0.7; Vif A3G: 21%; T cruzi repl: 12; Calb FLC: 25; RanGTP-Impb inh: -0.2; Beta apoptosis: -1

What do the screens show for `COc1ccc(OC)c(NC(=S)N2CCN(Cc3ccccc3)CC2)c1`?
Bfl-1 A1 inh: 1.3; AF4-AF9 inh: 4.7; Vif A3G: -8%; T cruzi repl: -5; Calb FLC: -13; RanGTP-Impb inh: -1.1; rRNA inh HTS: 5; Beta apoptosis: -4; rRNA inh HTS OD600: 6; rRNA inh HTS RFP: -1.5

An excerpt; rates above refer to the full screens.
